# Sfp PPTase inh – Sfp phosphopantetheinyl transferase inhibition. Potency, µM, without a hit: max response, negative = inhibition, most hits filed as inhibitors. Biochemical Sfp PPTase activity, qHTS. AID 1490. Q9F4F7. hit rate 3.5% among 310,000; active = well fitted inhibition curve with a large enough effect; inconclusive = small, poorly fitted or top-dose-only effect, or another doubt; inactive = no such curve, though single readings can be large or run the other way;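 also: the enzyme is Sfp with the accession as filed and its product quenches rhodamine fluorescence; potency is read from the fitted curve at half-maximal effect; 0% = enzyme reaction without inhibitor and -100% = no enzyme wells; top concentration of the series not given in the record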
#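 Compounds were incubated with enzyme (final 15 nM) for 15 min at room temperature before substrate addition started the reaction. Fluorescence at 525 nm excitation, 598 nm emission was recorded immediately and after 30 minutes.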
# gsp ag – activates gsp, the McCune-Albright syndrome mutation | gsp mutant cells, cAMP HTRF, 30 min; control for the full effect not named in the record | Potency, µM (highest dose often 76.9 µM), without a hit: top-dose activation (cAMP increase), hits mostly activators | hit rate 0.13% among 340,000 | AID 624287; active = well fitted activation curve with a large enough effect; inconclusive = small, poorly fitted or top-dose-only effect, or another doubt; inactive = no such curve, though single readings can be large or run the other way; cell line not stated here;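 also: phosphodiesterase inhibitor Ro 20-1724 added with compounds to block cAMP breakdown; potency is read from the fitted curve at half-maximal effect; nearly all actives have a fitted effect of over 60% in size; about a fifth of the inactives were tested at one dose only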
#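 Cells stably selected in G418 were plated at 2000/well, grown 16-24 hr, then given compounds in DMSO with the PDE inhibitor […] (300 uM solution added) for 30 min at 37C; cAMP was read by HTRF.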
# D2 potentiator – potentiates the human D2 dopamine receptor allosterically; DiscoveRx D2 beta-arrestin cells, luminescence, 90 min; 100% = 57 uM dopamine signal; potentiation, % (test concentration not listed); hit rate 0.23% among 360,000; active = potentiation of 50% or more; inconclusive = 30% to 50%; inactive = 30% or less;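 also: compound concentration not given in the record; tested on top of an EC20 dose of dopamine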
# Target sequence (P14416 whole entry, looked up): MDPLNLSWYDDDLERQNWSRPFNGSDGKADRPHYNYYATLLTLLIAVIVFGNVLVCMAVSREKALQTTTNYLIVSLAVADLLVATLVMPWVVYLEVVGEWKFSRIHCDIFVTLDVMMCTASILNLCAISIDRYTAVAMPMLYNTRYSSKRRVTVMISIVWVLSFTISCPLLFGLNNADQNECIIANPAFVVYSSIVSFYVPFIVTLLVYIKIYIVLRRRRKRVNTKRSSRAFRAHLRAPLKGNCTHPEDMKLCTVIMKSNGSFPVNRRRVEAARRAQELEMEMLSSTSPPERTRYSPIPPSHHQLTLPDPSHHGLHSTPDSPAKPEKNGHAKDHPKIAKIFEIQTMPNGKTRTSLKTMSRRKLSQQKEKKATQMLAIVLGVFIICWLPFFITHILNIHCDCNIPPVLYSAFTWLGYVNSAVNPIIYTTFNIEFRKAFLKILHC
#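 D2 cells co-treated with compound plus 50 nM dopamine (EC20) for 90 min at 37 deg C to detect potentiation. Beta-arrestin recruitment was read as enzyme-fragment luminescence after 1 h at ambient temperature. Full response was set by 57 uM dopamine.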
# ClpP mod – qHTS Assay for Activators of ClpP; Potency, µM (doses to about 57.5 µM), for inactives: top-dose activity change, negative = active; hit rate 1.9% among 340,000; AID 651965, 2013; purified B. subtilis ClpP, FRET peptide cleavage, 20 min; active = well fitted falling curve with a large enough effect; inconclusive = small, poorly fitted or top-dose-only effect; inactive = no such curve, though single readings can be large or run the other way; also: potency is read from the fitted curve at half-maximal effect; the source files actives as falling curves though it sought activators and does not explain the sign; nearly all actives have a fitted effect of over 65% in size; many hits overshoot -100%
# Target sequence (P80244 whole entry, looked up): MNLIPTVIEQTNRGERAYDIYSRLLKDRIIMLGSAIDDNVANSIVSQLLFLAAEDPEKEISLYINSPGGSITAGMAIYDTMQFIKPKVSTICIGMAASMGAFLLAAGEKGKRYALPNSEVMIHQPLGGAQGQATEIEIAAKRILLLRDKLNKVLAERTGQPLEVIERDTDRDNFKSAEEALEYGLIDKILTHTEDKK
#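 ClpP 10 microg/mL final, pH 8 Tris/KCl buffer with BSA, glycerol, Tween-20; compound pinned in; FRET-FV substrate; RT 20 min; Ex320/Em430; ΔFRET vs ADEP 5.8 microM, DMSO, no enzyme.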
# gsp antagonist – antagonizes gsp, the McCune-Albright syndrome mutation; AID 624288; gsp-mutant cells, cAMP HTRF, 30 min; control for the full effect not named in the record; hit rate 0.4% among 340,000; Potency, µM (series often up to 76.9 µM), inactives show at the highest dose activity change, negative = inhibition, most hits filed as inhibitors; active = falling curve of any shape with a large fitted effect; inconclusive = falling curve, mostly with a smaller effect; inactive = flat or rising curve; cell line not stated here;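 also: intracellular cAMP measured with PDE inhibitor Ro 20-1724 present during compound exposure; potency is read from the fitted curve at half-maximal effect; % is scaled to controls: 0 for no effect and ±100 for the full control effect; nearly all actives have a fitted effect of over 65% in size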
#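 G418-selected cells were plated in DMEM/10% FBS for 16-24 h at 37C, then treated with compounds plus the PDE inhibitor […] (300 uM solution added) for 30 min at 37C. Intracellular cAMP was measured by HTRF after 30 min lysis at room temperature.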
# TRPV1 PAM – enhances activation of the human vanilloid receptor TRPV1. Q8NER1. TRPV1-expressing cells, Fluo-8 calcium influx, capsaicin EC20 potentiation; host cell line not named in the record; control for the full effect not named in the record. potentiation, % at 8.33 µM. hit rate 0.02% among 320,000. AID 540277; active means potentiation above 80%; inconclusive means 30% to 80%; inactive means below 30%; also: 0% is about no effect
#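 TRPV1-expressing cells were cultured overnight at 35.5C and loaded with Fluo-8 calcium dye for 40 to 90 min at room temperature. After a 10 s baseline, compound was added and calcium influx was read kinetically for 3 min (ex 480/em 520 nm).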
# Menin-MLL FL inh – displaces fluorescein MLL peptide from human menin | Fluorescence polarization, fluorescein-MLL peptide displacement from menin | FP activity change, % at 61.4 µM | 290,000 tested, under 10 active | AID 1766; inconclusive = falling polarisation curve, or a change in total fluorescence; inactive = total fluorescence flat and polarisation flat or rising; no compound was filed as active; the % refers to the polarisation; negative = inhibition;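 also: % of control where 0% means no effect; inhibitors lower the polarisation; unlabelled MLL peptide was the positive control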
# An asterisk follows results filed as active; ? = inconclusive; nt = no result given; & = joins results of further samples; [ ] = remark or other dose. Rows were taken by chance (roughly 5.1% active in at least one column).
SMILES,Sfp PPTase inh,gsp ag,D2 potentiator,ClpP mod,gsp antagonist,TRPV1 PAM,Menin-MLL FL inh
COc1ccc(CCC(=O)NNC(=O)Nc2cc(Cl)ccc2C)cc1,12%,9%[15.4 µM],-12,-2.9%,3%,?,-1.2
COC(=O)c1ccc(-c2ccco2)n1Cc1ccccc1Cl,?,?,-6,28µM*,?,-3,-2.5
S=c1[nH]nc(C2CCCCC2)n1/N=C/c1c(Cl)cccc1Cl,-10%,16%,-11,-2.0%,-7%,17,-3.0
Cc1ccc(C)c(NC(=O)c2oc(=O)c3ccccc3c2-c2ccccc2)c1,-17%,10%,-30,-2.9%&0.2%,11%,-8,-1.0
CN(Cc1ccc(Cl)c(Cl)c1)C(=O)c1cccc(S(=O)(=O)N2CCN(Cc3ccccc3)CC2)c1,nt,-1%,-1,-2.3%,-26%,6,nt
O=C(Nc1cccc(C(=O)O)c1)/C(=C\c1ccccc1)NC(=O)c1ccccc1,14%,23%[15.4 µM],-4,nt,-1%,20,-4.6
CC1CCCCC1NCc1cccc([N+](=O)[O-])c1 (stereo not given),-12%,19%,-9,1.3%,11%,0,-2.1
COc1ccc(CC(=O)NC2CCSc3ccccc32)c(OC)c1 (stereo not given),11%,-9%[15.4 µM],-5,nt,-3%,-14,1.2
Cc1cc2c(ncn2C)c(NS(=O)(=O)c2ccccc2Cl)c1C,-9%,-53%[inhibitor],-15,-2.3%,-2%,9,-2.1
COc1ccc(C(=O)Nc2cc(C(F)(F)F)ccc2Cl)cc1OC,7%,-1%,2,3.4%,5%,-1,1.1
N#Cc1nc(-c2ccc(OCc3ccccc3)cc2)oc1NCc1cccnc1,-2%,14%,-9,?,-18%,17,-0.7
CCN=C1SC(CC(=O)Nc2ccccc2OCC)C(=O)N1CC (stereo not given),13%,-27%,-6,0.0%,-2%,-4,2.0
c1ccc2nc3c(nc2c1)c1ccccc1n3CCN1CCOCC1,2%,-47%[inhibitor],-16,-0.2%,-2%,9,1.6
COc1ccccc1C(CNC(=O)C1CC(=O)N(Cc2ccc(C)cc2)C1)N1CCCC1 (stereo not given),nt,-3%[15.4 µM],-9,-1.7%,7%,-1,nt
O=c1oc2ccc(NS(=O)(=O)c3cccc4cccnc34)cc2s1,-2%,35%,-5,nt,-6%,7,-13
N#Cc1ccc(C(=O)Nc2ccc(S(=O)(=O)NC3=NCCCCC3)cc2)cc1,1%,-26%,-1,0.6%,-4%,-4,5.7
COc1ccc2oc(C(=O)Nc3nc4ccccc4[nH]3)c(C)c2c1,?,-12%,-4,?,-14%,26,5.7
CC(=O)Nc1cccc2c1[n+]([O-])c(C)c(C)[n+]2[O-],2%,nt,nt,nt,nt,8,4.3
CCOC(=O)c1cc(C)n(-c2ccc(OC)c(OC)c2)c1C,-9%,-5%,2,-0.1%,-9%,-7,3.3
COc1cccc(N2CC(O)Cn3c2nc2c3c(=O)[nH]c(=O)n2C)c1 (stereo not given),18%,-26%[15.4 µM],-5,-3.8%,6%,?,2.6
O=S(=O)(c1ccc(Cl)cc1)c1nc(-c2ccco2)oc1N1CCOCC1,-11%,-61%[inhibitor][15.4 µM],-15,nt,-2%,-32,-0.2
COCCNC(=O)C(=O)NNC(=O)CCc1ccccc1,?,-9%,-5,3.3%,6%,-3,-1.4
CCNc1c(NS(=O)(=O)c2ccc([N+](=O)[O-])cc2)c(=O)oc2ccccc12,-14%,1%[15.4 µM],4,?,-8%,-2,-1.7
C=C(C)c1cccc(C(C)(C)NC(=O)NCc2ccc(OC)c(OC)c2)c1,4%,-27%,-4,1.6%,-6%,-11,-0.4
O=C(NCCS(=O)(=O)NCc1ccccc1)c1ccccc1,nt,-5%[15.4 µM],-15,-3.0%,5%,-2,nt
COc1ccc(-c2nc(CS(=O)CC(=O)NCCCN3CC(C)CC(C)C3)c(C)o2)cc1OC (stereo not given),14%,30%,-7,28µM*,-1%,-3,1.9
Cc1ccc(N2CN=C(c3ccccc3)NC2=S)cc1,4%,-36%[inhibitor],-7,-1.4%,-7%,23,3.0
CCCS(=O)(=O)N1CCN=C1SCc1cccc(F)c1,7%,-10%,0,2.9%,9%,7,nt
COCCN(C(=O)COC(=O)C(C)(C)Oc1ccc(Cl)cc1)c1c(N)n(Cc2ccccc2)c(=O)[nH]c1=O,nt,8%,-1,1.0%,7%,nt,nt
COC1(OC)N=C(N)C2(C#N)C(c3ccccc3)NC(C)=CC12C#N (stereo not given),-4%,3%,9,-21%,6%,26,-4.6
N#CCCCC#Cc1ccc2c(c1)COc1c3ccccc3nn1-2,nt,nt,-10,-3.2%,?,4,nt
COc1ccc(OC)c(N/C(C)=C/C(=O)c2ccc(C)o2)c1,-3%,-10%,11,0.3%,-7%,-20,12
CC1CC(C)CN(C(=O)c2ccc3c(c2)N(Cc2ccccc2)CCS3)C1 (stereo not given),?,5%,-2,3.9%,-22%,9,1.0
COc1ccc(-c2nc3ccccc3c(=O)n2CCOc2cccc(C)c2C)cc1,-9%,1%,-3,?,-8%,1,0.4
CC1CCC(NC(=O)CCS(=O)(=O)c2ccc3c(c2)NC(=O)CS3)CC1 (stereo not given),-3%,-38%[inhibitor],-4,0.3%,-23%,-7,nt
C=CCn1c(COc2ccccc2-c2ccccc2)nnc1SCC(=O)NC(=O)NCc1ccco1,-11%,4%,-5,-1.1%,-17%,9,-1.6
Cc1ccc(N2C(S)=C(C#N)C(=O)NC2c2ccco2)cc1 (stereo not given),-87%,?,-5,0.8%,-9%,17,6.3
CCC1C(=O)NCCN1C(=O)CCc1nnc(CCc2ccc(OC)cc2)o1 (stereo not given),21%,7%,16,-2.4%,2%,3,nt
Cc1ccc(C(=O)NCCc2nnc3ccc(SCC(=O)N4CCCCC4)nn23)cc1,0%,?,13,-11%,-11%,-15,nt
CC(C)CC(=O)Nc1ccc2ccccc2c1,18%&9%,4%[15.4 µM],3,0.0%,14%,3&-17,5.6&2.4
Cc1c(C(=O)NCCSCc2cccc(C(F)(F)F)c2)cnn1-c1ccc(Cl)cc1,15%,9%[15.4 µM],-15,nt,-18%,nt,-0.8
CC1=CC(C)(C)NC(=S)N1NC(=O)c1ccccc1Cl,-29%,-1%[15.4 µM],-7,nt,-1%,2,0.6
COc1ccc(OCCCC(=O)N(C)CC(=O)Nc2ccccc2Cl)cc1,11%,2%,-18,-1.1%,-16%,-9,nt
COc1ccc(C(=O)Nc2ccc(N3CCN(C(=O)c4ccccc4)CC3)cc2)cc1[N+](=O)[O-],-3%,21%[15.4 µM],-4,-1.7%,-29%,17,0.3
CN=C(Nc1cc(Cl)ccc1Cl)SC1CC(=O)N(c2ccc(C(=O)OC)cc2)C1=O (stereo not given),28%,6%,-4,-0.6%,-2%,3,4.1
CC1CCN(c2nc3ccccc3n2CC(=O)c2ccccc2)CC1,13%,8%,-4,0.9%,9%,-22,1.7
Cc1cc(C)n(C(C)n2nc(C)cc2C)n1,8%,-45%[inhibitor],-2,-2.0%,9%,6,5.3
COc1ccc(-c2cc(C(=O)NC3=NCCS3)c3ccccc3n2)cc1OC,10%,6%[15.4 µM],-11,nt,-9%,-10,-2.6
CC(=O)c1ccc(N2CCN(Cc3cc(=O)n4c(-c5ccccc5)csc4n3)CC2)cc1,nt,5%[15.4 µM],-2,nt,-18%,nt,nt
N/C(=N\OC(=O)c1ccccc1Br)c1ccc([N+](=O)[O-])cc1,16%,6%,30,1.1%,2%,-4,-0.1
Fc1ccc(-[n+]2nc(Nc3ccccc3)sc2-c2ccc(OCc3ccccc3)cc2)cc1,-19%,nt,-18,-1.1%,-12%,8,25
O=C(CN1CCN(S(=O)(=O)c2ccccc2)CC1)NC1CC1,2%,15%[15.4 µM],-6,nt,4%,8,nt
Cc1ccc(OCCn2cc(/C=C/C(=O)O)c3ccccc32)cc1,4%,-10%,-3,-3.1%,-14%,11,-0.1
Cc1ccc(-n2c(SCC(=O)Nc3ccc4c(c3)OCO4)nnc2-c2cccs2)cc1,-10%,12%,-12,-15%,4%,-12,-0.7
COc1ccc(NC(=O)c2ccco2)cc1NC(=O)c1cccc(OC(C)C)c1,-8%,-7%,-3,-0.7%,-13%,-4,0.3
O=C(NC1CCCCCCC1)c1ccc(CNc2c(N3CCOCC3)c(=O)c2=O)cc1,13%,-6%,-2,0.5%,3%,1,0.3
Cc1ccsc1-c1nc(CSCC(=O)N2CCN(c3ccccc3)CC2)c(C)o1,-4%,-41%,-1,-16%,?,0,0.3
Cc1cccc(OCCC(=O)Nc2c(C)n(C)n(-c3ccccc3)c2=O)c1,14%,-24%,-11,1.0%,0%,-21,2.8
COc1ccc(C(=O)n2nc(C)c(Br)c2C)cc1,16%,2%,2,1.0%,17%,-3,1.3
COc1ccc(S(=O)(=O)N2CCC(C(=O)N3CCCCC3)CC2)cc1OC,15%,-51%[inhibitor],-5,3.1%,-5%,-11,-0.1
# (more compounds)
SMILES,Sfp PPTase inh,gsp ag,D2 potentiator,ClpP mod,gsp antagonist,TRPV1 PAM,Menin-MLL FL inh
COc1cc2c(c(OC)c1OC)-c1ccc(SC)c(=O)cc1C(NC(=O)c1ccccc1)CC2 (stereo not given),nt,?,-10,-1.4%,12%,nt,nt
COc1cccc(-c2nc(CSCC(=O)NCC3CCCO3)c(C)o2)c1 (stereo not given),20%,-48%[inhibitor],1,-24%,2%,9,1.0
COc1ccccc1NC(=O)CN(c1ccc([N+](=O)[O-])cc1)S(=O)(=O)c1ccccc1,-1%,4%[15.4 µM],-1,-2.6%,-6%,-2,-0.2
Cc1nc(NC(=O)c2ccccc2)sc1C1(C)CC(c2c(Cl)cccc2Cl)=NO1 (stereo not given),-3%,nt,2,?,4%,5,1.3
CSC1=NC2(C[C@H]2c2ccccc2)C(=O)N1C (stereo not given in full),nt,-2%[15.4 µM],16,0.8%,9%,nt,nt
CC1SCC(=O)N(CC(=O)NCc2ccccc2)C1=O (stereo not given),5%,2%,0,-2.3%,-2%,-19,2.8
Cc1ccc(SCC(=O)OCC(=O)NCc2cccs2)cc1,nt,-10%[15.4 µM],-19,nt,2%,-12,nt
